High-throughput results: PubChem BioAssay, NMMLSC
Autofluor counter – flagged as autofluorescent in microsphere protease counterscreen; hit rate 3.1% among 360,000; fluorescence intensity (concentration not given with the values); compound autofluorescence counterscreen, microsphere flow cytometry; hits give high values;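 active = at least 3 SD above the mean of all compounds, about 16000 in these data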;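 note: 100 nL of 1 mM stock went into each well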
* = called active by the depositor. This is a subset (hit frequency here may not be typical).

SMILES	Autofluor counter
O=C(NCc1cccc(Cl)c1)c1ccc(-n2ccnc2)c2ccoc12	3882
COc1cc(OC)cc(-c2c(Sc3ccccc3)c3cc(-c4ccc(OC)c(OC)c4)ccc3n2C)c1	6204
COCC(=O)Oc1cc(-c2ccc(C)cc2C)c(OC(=O)COC)c(-c2ccc(C)cc2C)c1	3827
CCOc1cc(/C=N/NC(=O)c2nnn(-c3nonc3N)c2C)ccc1OCc1ccc(C)cc1	3868
CCCCNC(=O)C1(C)CCCCN1C(=O)c1ccc(OC)c(C(F)(F)F)c1 (stereo unspecified)	3504
O=C(Nc1cccc(S(=O)(=O)C(F)(F)F)c1)[C@@H]1O[C@H](CO)[C@@H](O)[C@H]1O	3177
COc1ccc(-c2c(C(=O)c3ccccc3)[nH]c(N)c2C(=O)c2ccccc2)cc1OC	6189
COC(=O)c1c(NC(=O)C2COc3ccccc3O2)sc2c1CCN(C(=O)OC)C2 (stereo unspecified)	3913
Cn1cc(-c2coc3c(C(=O)NCc4ccco4)cccc23)cn1	3921
CC1(C(=O)NS(=O)(=O)c2cccc(C#N)c2)CCN1C(=O)C1CCCCC1 (stereo unspecified)	3591
COc1ccc(N=C2SCC(=O)N2C)cc1	3445
COc1ccc(CCNC(=O)c2cc3ccc(Cl)cc3nc2N)cc1	5800
CNC(=O)C1(C)Cc2c(-c3ccc(NC(C)=O)cc3)ccnc2O1 (stereo unspecified)	3861
COc1cccc(-c2cnc3c(NC=O)cc(-c4ccccc4)cn23)c1	4098
CN1CCN(C2CN(Cc3cn(Cc4ccc(Cl)cc4)nn3)S(=O)(=O)C2)CC1 (stereo unspecified)	6201
CC1(Cc2ccccc2Cl)C(=O)Nc2cc(-c3ccccc3Cl)ccc21 (stereo unspecified)	2968
CCCC(=O)Nc1nnc(SCC(=O)Nc2ccc(OCC)cc2)s1	3956
CC(C)C[C@@H](COCc1ccc(Cl)cc1)N1CCN(C(=O)c2ccc(C(F)(F)F)cc2)CCC1=O	5352
Cc1ccc2nc(-c3cccc(Br)c3)c(Cc3cccc(Cl)c3)n2c1	7064
C[C@@H]1CN([C@@H](C)CO)S(=O)(=O)c2ccc(Br)cc2O[C@@H]1CN(C)C(=O)NC1CCCCC1	3672
COc1ccc(CNC(=O)Nc2nc(C(N)CCc3ccccc3)cs2)cc1 (stereo unspecified)	3792
CC(=O)Nc1ccccc1-c1cccc2nccn12	3525
COc1ccc(CN2C(=O)C(CC(=O)NCCc3ccccn3)CC(C(=O)N3CCCCCC3)=C2C)cc1 (stereo unspecified)	5912
Cc1ccc(S(=O)(=O)N(C)C)cc1NC(=O)COC(=O)c1cccs1	3733
CCc1nc2ccc(C(=O)NCCC(C)C)cn2c1N(C)Cc1ccc(OC)cc1	3099
OC(c1ccc(Cl)c(F)c1)c1ncc(-c2ccccc2F)[nH]1 (stereo unspecified)	3841
Cc1cccc(C)c1-n1nnnc1C1(C)CCC(=O)N1C1CC1 (stereo unspecified)	5972
COc1cccc(C(c2nnnn2Cc2ccccc2)N2CCC3(CC2)C(=O)NCN3c2ccccc2)c1OC (stereo unspecified)	5267
COC(=O)C1(C(=O)OC)C/C=C\CN(S(=O)(=O)c2ccccc2[N+](=O)[O-])CC1	5743
COc1cc(NC(=O)CSc2nc3[nH]ncc3c(=O)n2-c2ccccc2)cc(OC)c1OC	3497
CC(NC(=O)c1ccc2nc(Cc3cccc(Cl)c3)oc2c1)c1ccncn1 (stereo unspecified)	3642
CN1CCN(c2ccc3sc(-n4ccc5ccccc54)nc3c2)CC1	3797
CCOc1ccc(S(=O)(=O)N2CCCC2)c2ccccc12	3571
Cn1cc(CN2CCC(C(=O)NC(c3ccc(F)cc3)c3ccc4ccccc4n3)CC2)c2ccccc21 (stereo unspecified)	4176
O=C(NCCN1CCC(n2c(=O)[nH]c3ccccc32)CC1)c1ccccc1	5954
CCOC(=O)[C@]12CCCC=C1N(Cc1ccc(Cl)cc1Cl)C(=O)[C@H](CC(=O)NCc1cccc3ccccc13)C2	6389
CC1(C(=O)NCc2ccco2)Cc2c(-c3ccc4c(c3)OCO4)ccnc2O1 (stereo unspecified)	4106
COc1ccc(S(=O)(=O)NC(=O)C2(C)CCN2C(=O)C2CCCCC2)cc1OC (stereo unspecified)	3501
Cc1ccc(CNS(=O)(=O)c2ccc(Cl)s2)cc1	3059
CC1(C(=O)NCCC(F)(F)F)Cc2c(-c3cccc(C(N)=O)c3)ccnc2O1 (stereo unspecified)	3928
Cc1ccc(F)c(CNC(=O)C2(C)CCCN2C(=O)C(C)C)c1F (stereo unspecified)	3129
CC(C)CC(N)c1csc(Nc2ccc(C(=O)c3ccccc3)cc2)n1 (stereo unspecified)	2950
CC1(C)CC(Cc2ccc(Cl)nc2)N(C(=O)OC(C)(C)C)C1 (stereo unspecified)	3813
COc1cc(C(O)c2nc(-c3ccncc3)cs2)ccc1F (stereo unspecified)	4202
CC1(C)CC(=O)C=C(c2ccc(-c3ccc(OC(F)(F)F)cc3)cc2)C1=O	3564
CN(C)CCN1CCN(C2CN(Cc3ccc([N+](=O)[O-])cc3)S(=O)(=O)C2)CC1 (stereo unspecified)	5825
COc1ccc(NC(=O)c2cc(C3CCCCN3S(=O)(=O)Cc3ccccc3)on2)cn1 (stereo unspecified)	3907
CC1(C(=O)NS(=O)(=O)c2ccccc2Cl)CCN1C(=O)c1ccco1 (stereo unspecified)	3627
C[C@@H]1c2ccccc2N2C[C@H](Cc3ccc(C(=O)c4ccccc4)cc3)C[C@@H]12	3721
Cc1ccnc(NC(=O)CCNC(=O)c2ccc(Br)cc2)c1	3875

Arranged by molar mass (high to low): 3 of the compounds above.
SMILES	Autofluor counter
COc1ccc(NC(=O)c2cc(C3CCCCN3S(=O)(=O)Cc3ccccc3)on2)cn1 (stereo unspecified)	3907
CC(C)CC(N)c1csc(Nc2ccc(C(=O)c3ccccc3)cc2)n1 (stereo unspecified)	2950
COc1cc(C(O)c2nc(-c3ccncc3)cs2)ccc1F (stereo unspecified)	4202

Remaining list, next part.
SMILES	Autofluor counter
C[C@H]1CN([C@@H](C)CO)C(=O)CCCn2nncc2CO[C@@H]1CN(C)S(=O)(=O)c1cccc(F)c1	3580
COc1cccc(C2=Cc3ccc(F)cc3C(CC(C)=O)N2c2ccc(-c3cncnc3)cc2)c1 (stereo unspecified)	5051
Cc1cccnc1C(NC(=O)C1CCN(Cc2ccc(Oc3ccccc3)cc2)CC1)c1ccc(F)cc1 (stereo unspecified)	3339
Cc1cc(C)cc(Cn2cc(CN3CC(N4CCN(CCO)CC4)CS3(=O)=O)nn2)c1 (stereo unspecified)	6314
O=C(NCc1cc(Cl)cc(Cl)c1)c1ccc2sc([C@@H]3O[C@H](CO)[C@H](O)[C@H](O)[C@H]3O)nc2c1	3906
CCCC(C)(C)C(=O)N1CCC1(C)C(=O)NS(=O)(=O)c1ccc(Br)cc1 (stereo unspecified)	3506
O=C(CSc1ccccn1)NC1CCCc2c1cnn2-c1ccccc1F (stereo unspecified)	4062
COc1ccc(CN(C(C)=O)c2cc(C)c([N+](=O)[O-])cc2OC)cc1OC	3463
COC(=O)C1=C/C=C\CN(C(c2ccccc2)c2ccccc2)/C=C\1C(=O)OC	3848
CC(C)(C)n1nnnc1C(c1cccc2ccccc12)N1CCC2(CC1)C(=O)NCN2c1ccccc1 (stereo unspecified)	5807
COCC1CCN(Cc2c(C(=O)N3CCOCC3)nc3c(C)cccn23)C1 (stereo unspecified)	3912
O=C(Nc1ccc(C(O)c2ccccc2)cc1)[C@@H]1O[C@H](CO)[C@@H](O)[C@H]1O (stereo partly specified)	3644
O=C1Nc2cc(C(=O)N3CCOCC3)ccc2S/C1=C/c1ccccc1F	3543
CCC(=O)Nc1ccc(S(=O)(=O)NC[C@H]2O[C@@H](n3cnc4c(=O)[nH]c(N)nc43)[C@H](O)[C@@H]2O)cc1	4420
CNC(=O)C[C@H]1C(=O)N(c2ccc(OC)cc2)C[C@@H]1Cc1ccccc1	3743
COCCNC(=O)C1CCCN(C(=O)COc2ccc(C(C)(C)C)cc2)CC1 (stereo unspecified)	4004
COc1ccc(Cl)c(-c2cc(C(=O)Nc3ccccc3)[nH]n2)c1	3502
C[C@H]1CN([C@@H](C)CO)C(=O)CCCn2cc(nn2)CO[C@@H]1CN(C)C(=O)Nc1ccccc1F	3815
CCCCC(=O)N(C)c1c(CC)nc2c(OCCC)cccn12	3312
O=C1c2ccccc2C(c2nnnn2Cc2ccccc2)N1CCc1ccccc1F (stereo unspecified)	5676
CC(C)NC(=O)C1(C)CCCCN1Cc1cccc(C(F)(F)F)c1 (stereo unspecified)	3019
CC(=O)c1cccc(-c2ccnc3c2CC(C(=O)NCc2ccc(N4CCN(C)CC4)cc2)O3)c1 (stereo unspecified)	3063
Cn1c(=O)c2cc(NC(=O)CCc3ccc(O)cc3)ccc2n1Cc1cccc(C(F)(F)F)c1	2904
COc1ccccc1N(CC(=O)N1CCN(Cc2ccccc2)CC1)S(=O)(=O)c1ccccc1	3331
COCCNC(=O)C1(C)CCCN(Cc2noc(-c3ccccc3OC)n2)C1 (stereo unspecified)	3966
CSc1ccc(CN2CCC(C)(Oc3cnc(Cl)c4ccccc34)C2)cc1 (stereo unspecified)	3827
CC(=O)N1CC2(CC(c3ccccc3F)=NO2)CN1c1ccc(Cl)cc1 (stereo unspecified)	3614
CC1(C)OC(=O)C2=C(C[C@@H](C3CCCCC3)O[C@H]2c2ccc(Cl)cc2)O1	3985
Cc1cccc(C)c1NC(=O)CN(C)CCc1ccccc1	5690
COCCNC(=O)C1CCCN(C(=O)c2cc(-c3cccs3)oc2C)CC1 (stereo unspecified)	3965
Cc1ccc(NC(=O)COC(=O)Cc2c[nH]c3ccccc23)cc1	3825
O=C(c1cccs1)N1C[C@H](O)[C@@H](n2cc(-c3ccc(F)cc3)nn2)C[C@@H]1c1ccccc1	3590
CC(=O)NCCNc1nc2cc(-c3ccccc3CO)sc2c(=O)n1C	3744
CCc1nc2c(OCc3ccc(F)c(F)c3)cccn2c1N(C)C(=O)C(C)C	3707
CCCCCC(=O)N1C[C@@H](O)[C@H](n2cc(C3CC3)nn2)C[C@@H]1c1ccc(OC)cc1	3379
CCCCN1CC(COCc2ccccc2)Oc2cccc(OCc3ccc(OC)cc3)c2S1(=O)=O (stereo unspecified)	3972
CCOc1ccccc1-c1cncc(NC)n1	3897
O=C(O)c1ccc(CN2C[C@@H](CO)O[C@@H](n3cnc4c(N5CCOCC5)ncnc43)C2)cc1	3854
COc1ccc(CNC(=O)CC[C@H]2O[C@@H](n3cnc4c(NC(=O)c5ccccc5)ncnc43)[C@H](O)[C@@H]2O)cc1	6138
Nc1ncnc2c1ncn2[C@@H]1O[C@H](C(=O)NS(=O)(=O)c2cccc(F)c2)[C@@H](O)[C@H]1O	6299

Entries above that contain bromine, in the order listed:
SMILES	Autofluor counter
Cc1ccc2nc(-c3cccc(Br)c3)c(Cc3cccc(Cl)c3)n2c1	7064
C[C@@H]1CN([C@@H](C)CO)S(=O)(=O)c2ccc(Br)cc2O[C@@H]1CN(C)C(=O)NC1CCCCC1	3672
Cc1ccnc(NC(=O)CCNC(=O)c2ccc(Br)cc2)c1	3875
CCCC(C)(C)C(=O)N1CCC1(C)C(=O)NS(=O)(=O)c1ccc(Br)cc1 (stereo unspecified)	3506

Gathered by group: the compounds so far with an aryl thioether with sulfur outside any ring (five)
SMILES	Autofluor counter
COc1cc(OC)cc(-c2c(Sc3ccccc3)c3cc(-c4ccc(OC)c(OC)c4)ccc3n2C)c1	6204
CCCC(=O)Nc1nnc(SCC(=O)Nc2ccc(OCC)cc2)s1	3956
COc1cc(NC(=O)CSc2nc3[nH]ncc3c(=O)n2-c2ccccc2)cc(OC)c1OC	3497
O=C(CSc1ccccn1)NC1CCCc2c1cnn2-c1ccccc1F (stereo unspecified)	4062
CSc1ccc(CN2CCC(C)(Oc3cnc(Cl)c4ccccc34)C2)cc1 (stereo unspecified)	3827

Carrying on:
SMILES	Autofluor counter
CC1=C(C(=O)N2CCOCC2)CC(CC(=O)NCc2cccs2)C(=O)N1Cc1ccc(C(C)(C)C)cc1 (stereo unspecified)	3794
COc1cc(OC)cc(C2=Cc3ccc(OC)cc3C(CC(C)=O)N2c2ccc(-c3cccs3)cc2)c1 (stereo unspecified)	4944
CCOc1ccccc1C(=O)NCC(=O)N(C)CC(=O)Nc1ccc(N2CCOCC2)cc1	3823
CC(C)(C)c1ccc(CC(=O)N2CCC2(C)C(=O)NS(=O)(=O)c2cccc(OC(F)F)c2)cc1 (stereo unspecified)	3586
COc1cccc(-c2nc(CN3CCN(C(=O)c4ccco4)CC3)c(C)o2)c1OC	3778
COc1cc(OC)c(C(=O)c2ccccc2[N+](=O)[O-])c(OC)c1	4018
c1ccc2c(c1)CN1C(=N2)COc2ccccc2C1c1nc2ccccc2[nH]1 (stereo unspecified)	6222
CCN(CC)C(=O)C1=C(C)N(CCC2=CCCCC2)C(=O)C(CC(=O)NCc2ccco2)C1 (stereo unspecified)	3353
COc1ccc(CN2C(=O)C(CC(=O)NC(c3ccccc3)c3ccccc3)CC(C(=O)N(C(C)C)C(C)C)=C2C)cc1 (stereo unspecified)	3695
Cc1ccccc1-c1cnc2c(c1)C(=O)N([C@@H](C)CO)C[C@@H](C)[C@H](CN(C)Cc1ccccc1F)O2	3740
CCN1C(=O)[C@H]2[C@@H](c3ccc(C)cc3)N[C@]3(CCCN(Cc4ccc(C)cc4)C3=O)[C@H]2C1=O	3892
CC1=CCC[C@@H]2[C@]3(CC/C(=C/CO)CO)CO[C@@]2(C1)[C@@H](O)C[C@H]3C	5739
COc1ccc(NC(=O)C2(C)CCN2Cc2ccc(OC(F)(F)F)cc2)cc1OC (stereo unspecified)	3153
COc1cccc(S(=O)(=O)N(C)C[C@@H]2Oc3cc(Br)ccc3S(=O)(=O)N([C@@H](C)CO)C[C@@H]2C)c1	3716
COC(=O)c1cccc(-n2c(C)cc(/C=C3\SC(=O)NC3=O)c2C)c1	3748
O=C(COC(=O)Cc1ccc(Br)cc1)NCc1ccccc1	3703
